BmaI1 enzyme: BmaI1 acyl-homoserine lactone synthase inhibition – biochemical, fluorescence intensity, with counterscreen (AID 720554); BmaI1 enzyme assay, fluorescence intensity; hits give high values; test concentration not given here; a few actives read low; strong numbers were not always called active; inhibition, %; 0.4% of 12,000 active;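 active means both replicates within 2 robust z-scores of the inhibited control and a quiet counterscreen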;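 further: 0% = uninhibited enzyme and 100% = inhibited control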
BmaI1 enzyme counterscreen: further read-out of BmaI1 enzyme, marked with its call; inhibition, %; measured here: counterscreen; design of the counterscreen not given here;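 first of two replicates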
Active calls of the source: *. This is a subset (hit frequency here may not be typical).

Sample of the layout (2 entries):
Results for COc1ccc(-c2nc(S(=O)(=O)c3ccccc3)c(NCC3CCCO3)o2)cc1 (configuration not stated) ?
BmaI1 enzyme: -5; BmaI1 enzyme counterscreen: 0

What do the screens show for `CCCN(Cc1nnc(-c2ccco2)o1)C(=O)Cc1n[nH]c(=O)c2ccccc12`?
BmaI1 enzyme: 0; BmaI1 enzyme counterscreen: 2

The list itself, previewed entries included:
Results for COc1ccc(-c2nc(S(=O)(=O)c3ccccc3)c(NCC3CCCO3)o2)cc1 (configuration not stated) ?
BmaI1 enzyme: -5; BmaI1 enzyme counterscreen: 0

What do the screens show for `CCCN(Cc1nnc(-c2ccco2)o1)C(=O)Cc1n[nH]c(=O)c2ccccc12`?
BmaI1 enzyme: 0; BmaI1 enzyme counterscreen: 2

How did Oc1cc2c(cc1C(c1ccc(C(F)(F)F)cc1)N1CCN(c3ccccc3)CC1)OCO2 (configuration not stated) do in these assays?
BmaI1 enzyme: 6; BmaI1 enzyme counterscreen: 5

What do the screens show for `Cc1oc(-c2ccccc2)nc1C(=O)N1CCN(c2ccccc2)CC1`?
BmaI1 enzyme: 24; BmaI1 enzyme counterscreen: 9

Results for CCCn1c(N)c(C(=O)CSc2ncn[nH]2)c(=O)n(C)c1=O ?
BmaI1 enzyme: -3; BmaI1 enzyme counterscreen: -1

How did O=C(CSc1nncn1-c1ccccc1)CSc1nncn1-c1ccccc1 do in these assays?
BmaI1 enzyme: 58; BmaI1 enzyme counterscreen: 14

Results for O=C(CCCSc1nc2ccccc2[nH]1)NC1=NCCS1 ?
BmaI1 enzyme: 12; BmaI1 enzyme counterscreen: 12

What do the screens show for `Cc1cnc(NC(=O)c2ccccc2C(F)(F)F)s1`?
BmaI1 enzyme: 10; BmaI1 enzyme counterscreen: 2

What do the screens show for `CC(C)(C)c1cc(NC(=O)c2ccc(C#N)cc2)on1`?
BmaI1 enzyme: 8; BmaI1 enzyme counterscreen: 3

Results for Cc1cc(C)c(C#N)c(SC(F)F)n1 ?
BmaI1 enzyme: 12; BmaI1 enzyme counterscreen: 8

Results for CC(C)(C)NC(=O)NC(=O)CN1CCc2ccccc21 ?
BmaI1 enzyme: 34; BmaI1 enzyme counterscreen: 10

Results for CCOc1ccccc1NC(=O)CNc1cc(F)ccc1C ?
BmaI1 enzyme: 0; BmaI1 enzyme counterscreen: 3

What do the screens show for `CCOc1ccc(S(=O)(=O)N2CCc3ccccc3C2CC(=O)Nc2nnc(C)s2)cc1` (configuration not stated)?
BmaI1 enzyme: 2; BmaI1 enzyme counterscreen: 2

How did CCCN(CC(=O)Nc1cc(C)on1)CC(=O)Nc1ccccc1C do in these assays?
BmaI1 enzyme: 8; BmaI1 enzyme counterscreen: 1

How did CCn1c(O)c(C=Nc2ccc(OC)cc2)c(=O)n(CC)c1=S do in these assays?
BmaI1 enzyme: 26; BmaI1 enzyme counterscreen: 15

What do the screens show for `CCCCn1c(=O)[nH]c(=O)c2c1nc(COC(=O)C1(Cc3nc4ccccc4s3)CCCC1)n2C`?
BmaI1 enzyme: 12; BmaI1 enzyme counterscreen: 4

How did COc1cccc(NC(C)C(=O)Nc2ccc(NC(C)=O)cc2)c1 (configuration not stated) do in these assays?
BmaI1 enzyme: 4; BmaI1 enzyme counterscreen: 8

Results for C=C(C)CNC(=S)Nc1cc(Cl)ccc1Sc1nncn1C ?
BmaI1 enzyme: 29; BmaI1 enzyme counterscreen: 2

What do the screens show for `CCCc1ccc(S(=O)(=O)NCC2CCCN2CC)cc1` (configuration not stated)?
BmaI1 enzyme: 14; BmaI1 enzyme counterscreen: 8

How did CCc1cc2c(=O)c(-c3nc(C)cs3)c(N)oc2c(CN2CCCCC2)c1O do in these assays?
BmaI1 enzyme: 64; BmaI1 enzyme counterscreen: 14

Results for CC(C)CCN1COc2ccc3c4c(oc3c2C1)C(=O)c1ccccc1C4=O ?
BmaI1 enzyme: 24; BmaI1 enzyme counterscreen: 4

How did CCn1c(SCC(=O)N=Nc2c(O)[nH]c3c(C)cc(C)cc23)nnc1-c1ccc(C)cc1 do in these assays?
BmaI1 enzyme: 16; BmaI1 enzyme counterscreen: -2

What do the screens show for `CN(C)S(=O)(=O)c1ccc(SCC(=O)N2CC(=O)Nc3ccccc32)nc1`?
BmaI1 enzyme: 12; BmaI1 enzyme counterscreen: 6

Results for CCCCC(CC)CNc1ncnc2c1oc1ccccc12 (configuration not stated) ?
BmaI1 enzyme: -3; BmaI1 enzyme counterscreen: -14

Results for Cc1ccc(-n2nc(C)c3cc(C#N)c4nc5ccccc5n4c32)cc1 ?
BmaI1 enzyme: 16; BmaI1 enzyme counterscreen: 12

How did O=C(N/N=C/c1ccccn1)c1ccccc1NS(=O)(=O)c1cccs1 do in these assays?
BmaI1 enzyme: 8; BmaI1 enzyme counterscreen: -18

Results for O=c1c(O)c(-c2ccccc2O)[nH]c2ccccc12 ?
BmaI1 enzyme: 74; BmaI1 enzyme counterscreen: 34

What do the screens show for `CC(=O)Nc1ccccc1OCC(=O)N(C)Cc1ccco1`?
BmaI1 enzyme: 14; BmaI1 enzyme counterscreen: 1

What do the screens show for `CC(C)Cn1c(O)c(N=NC(=S)NC(C)C)c2ccccc21`?
BmaI1 enzyme: 14; BmaI1 enzyme counterscreen: 1

What do the screens show for `O=C(Cn1ncc(Cl)c(Cl)c1=O)N1CCOCC1`?
BmaI1 enzyme: 7; BmaI1 enzyme counterscreen: 10

Results for O=C1c2ccccc2C(=O)N1CCSc1n[nH]c(-c2ccccc2F)n1 ?
BmaI1 enzyme: 10; BmaI1 enzyme counterscreen: 3

Results for CC(C)(CNCC(O)c1ccccc1)N1CCOCC1 (configuration not stated) ?
BmaI1 enzyme: 6; BmaI1 enzyme counterscreen: 10

Results for NCCc1nc2ccccc2s1 ?
BmaI1 enzyme: 10; BmaI1 enzyme counterscreen: 6

What do the screens show for `Cc1cc(NC(=O)COC(=O)/C=C/c2cccs2)no1`?
BmaI1 enzyme: 18; BmaI1 enzyme counterscreen: 11

What do the screens show for `Cc1noc(C)c1CSc1ccccc1C(=O)N1CCN(C(=O)c2ccco2)CC1`?
BmaI1 enzyme: 8; BmaI1 enzyme counterscreen: -2

Results for NC(=O)NC(=O)C(Sc1ncccn1)c1ccccc1 (configuration not stated) ?
BmaI1 enzyme: 20; BmaI1 enzyme counterscreen: 12

How did COc1cccc(N2CCN(C(=O)CNC(=O)C34CC5CC(CC(C5)C3)C4)CC2)c1 do in these assays?
BmaI1 enzyme: 3; BmaI1 enzyme counterscreen: 2

What do the screens show for `Cc1ccc2nc(COC(=O)Cc3ccsc3)cc(=O)n2c1`?
BmaI1 enzyme: 8; BmaI1 enzyme counterscreen: 2

What do the screens show for `CNS(=O)(=O)c1cccc(C(=O)OCC(=O)c2cc(C)n(C)c2C)c1`?
BmaI1 enzyme: 2; BmaI1 enzyme counterscreen: -2

How did Cc1ccc(N2C(=O)CCC(C(=O)OCc3nnc(-c4ccccc4)o3)C2c2cccs2)cc1 (configuration not stated) do in these assays?
BmaI1 enzyme: 6; BmaI1 enzyme counterscreen: -4

Results for OCC(CO)(CO)NCc1ccc(Cl)cc1Cl ?
BmaI1 enzyme: 3; BmaI1 enzyme counterscreen: -2

What do the screens show for `CC(O/N=C/c1ccc2c(c1)OCO2)C(=O)N1CCc2ccccc21` (configuration not stated)?
BmaI1 enzyme: 20; BmaI1 enzyme counterscreen: 12

How did O=S(=O)(c1ccc(F)c(F)c1F)N1CCN(C(=S)NC2CC3CCC2C3)CC1 (configuration not stated) do in these assays?
BmaI1 enzyme: 14; BmaI1 enzyme counterscreen: 10

Results for COc1ccc(C2CC(c3ccc4ccccc4c3)=NN2C(=O)Cn2cnnc2C#N)cc1 (configuration not stated) ?
BmaI1 enzyme: 16; BmaI1 enzyme counterscreen: 14

How did NCCCOCc1ccco1 do in these assays?
BmaI1 enzyme: -4; BmaI1 enzyme counterscreen: -4

What do the screens show for `CCCCNC(=O)Nc1cc(C(F)(F)F)c[nH]c1=O`?
BmaI1 enzyme: 20; BmaI1 enzyme counterscreen: 28

How did O=C(O)CCn1c(-c2ccc(F)cc2)n[nH]c1=S do in these assays?
BmaI1 enzyme: 64; BmaI1 enzyme counterscreen: 48

Results for O=C(O)/C=C/C(=O)Nc1cn(-c2ccccc2)nc1-c1ccccc1 ?
BmaI1 enzyme: 16; BmaI1 enzyme counterscreen: 0

How did Cc1sc2nc(CSC(C)C(=O)N=c3sc4ccccc4n3C)[nH]c(=O)c2c1C (configuration not stated) do in these assays?
BmaI1 enzyme: -7; BmaI1 enzyme counterscreen: -4

What do the screens show for `O=C(Oc1ccc(Br)cc1)c1cccnc1N1CCCC1`?
BmaI1 enzyme: 4; BmaI1 enzyme counterscreen: 1

Results for CNC(=O)c1cc(N2CCN(c3ccccc3)CC2)ccn1 ?
BmaI1 enzyme: -2; BmaI1 enzyme counterscreen: -1

How did c1ccc(SCc2cn3cccnc3n2)cc1 do in these assays?
BmaI1 enzyme: 6; BmaI1 enzyme counterscreen: 2

What do the screens show for `Nc1nc2ncc(C(=O)c3cc(F)ccc3O)cc2s1`?
BmaI1 enzyme: 4; BmaI1 enzyme counterscreen: 4

What do the screens show for `CCc1noc(C)c1C(=O)OCC(=O)c1ccccc1OC`?
BmaI1 enzyme: 18; BmaI1 enzyme counterscreen: 5

Results for O=C(O)Cn1cc(C(F)(F)F)ccc1=O ?
BmaI1 enzyme: 16; BmaI1 enzyme counterscreen: 8

What do the screens show for `O=c1c2ccccc2nnn1CSc1nncn1-c1ccccc1`?
BmaI1 enzyme: 0; BmaI1 enzyme counterscreen: -4

Results for CC(C)NC(=O)CCc1c[nH]c2ccccc12 ?
BmaI1 enzyme: 9; BmaI1 enzyme counterscreen: 2

Results for O=C(NN1CCOCC1)c1cccc2ccccc12 ?
BmaI1 enzyme: 12; BmaI1 enzyme counterscreen: 5

What do the screens show for `C=CCn1c(SCc2cc(=O)oc3cc(O)ccc23)nnc1-c1ccccc1OC`?
BmaI1 enzyme: 6; BmaI1 enzyme counterscreen: -4

What do the screens show for `NS(=O)(=O)c1ccc(-c2ccc(/C=N/NC(=O)CSc3ccccc3F)o2)cc1`?
BmaI1 enzyme: 11; BmaI1 enzyme counterscreen: 5

5 compounds picked at random from those above, as already listed:
Results for CCCn1c(N)c(C(=O)CSc2ncn[nH]2)c(=O)n(C)c1=O ?
BmaI1 enzyme: -3; BmaI1 enzyme counterscreen: -1

What do the screens show for `CCc1noc(C)c1C(=O)OCC(=O)c1ccccc1OC`?
BmaI1 enzyme: 18; BmaI1 enzyme counterscreen: 5

What do the screens show for `CC(=O)Nc1ccccc1OCC(=O)N(C)Cc1ccco1`?
BmaI1 enzyme: 14; BmaI1 enzyme counterscreen: 1

Results for CC(C)(CNCC(O)c1ccccc1)N1CCOCC1 (configuration not stated) ?
BmaI1 enzyme: 6; BmaI1 enzyme counterscreen: 10

Results for CC(C)(C)NC(=O)NC(=O)CN1CCc2ccccc21 ?
BmaI1 enzyme: 34; BmaI1 enzyme counterscreen: 10

Next entries.
How did Cc1nc2nc(N)nn2c(C)c1CCC(=O)OCc1cccc(Cl)c1 do in these assays?
BmaI1 enzyme: 21; BmaI1 enzyme counterscreen: 24

Results for O=C(Cc1ccccc1)N/N=C1/CCS(=O)(=O)c2ccc(F)cc21 ?
BmaI1 enzyme: 0; BmaI1 enzyme counterscreen: -8

What do the screens show for `COC(=O)c1ccc2c(=O)[nH]c(COC(=O)c3ccccc3SCC(=O)N3CCCC3)nc2c1`?
BmaI1 enzyme: 10; BmaI1 enzyme counterscreen: 15

What do the screens show for `Cc1nn(-c2ccc(F)cc2)c(C)c1/C=C/C(=O)NC(C)(C)C`?
BmaI1 enzyme: 3; BmaI1 enzyme counterscreen: -6

How did O=C(COn1nnc2ccccc21)Nc1ccccc1C(=O)Nc1ccc2c(c1)OCO2 do in these assays?
BmaI1 enzyme: 12; BmaI1 enzyme counterscreen: 4

What do the screens show for `Cc1cc(C)cc(OCC(=O)OCC(=O)c2ccc3c(c2)OCO3)c1`?
BmaI1 enzyme: 16; BmaI1 enzyme counterscreen: 12

Results for CC(C)N(CCC(C(N)=O)(c1ccccc1)c1ccccn1)C(C)C (configuration not stated) ?
BmaI1 enzyme: -4; BmaI1 enzyme counterscreen: 1

How did CC(C)n1nccc1N(Cc1ccc(Cl)cc1)S(=O)(=O)c1ccccc1 do in these assays?
BmaI1 enzyme: 8; BmaI1 enzyme counterscreen: -2

What do the screens show for `O=S(=O)(NC1CC2CCC1C2)c1ccc(Cl)cc1` (configuration not stated)?
BmaI1 enzyme: 2; BmaI1 enzyme counterscreen: 2

Results for Cc1nnc(SC(C)C(=O)Nc2ccc(N3CCOCC3)cc2)n(N)c1=O (configuration not stated) ?
BmaI1 enzyme: -4; BmaI1 enzyme counterscreen: -6

What do the screens show for `O=C(COC(=O)c1ccc2c(=O)n3c(nc2c1)CCCCC3)NCC1CCCCC1`?
BmaI1 enzyme: 0; BmaI1 enzyme counterscreen: -10

What do the screens show for `CC1CN(/C(=N\S(=O)(=O)c2ccccc2)c2ccccc2)CC(C)O1` (configuration not stated)?
BmaI1 enzyme: 12; BmaI1 enzyme counterscreen: 10

Results for CC(C)CC(=O)Nc1ccc(C(=O)CN2CCN(c3ccc(O)cc3)CC2)cc1 ?
BmaI1 enzyme: 84; BmaI1 enzyme counterscreen: 42

Results for N#Cc1ccc(COc2cccc[n+]2[O-])cc1 ?
BmaI1 enzyme: -8; BmaI1 enzyme counterscreen: -13

How did Cn1c(SCc2cc(=O)n3cc(Br)ccc3n2)nnc1-c1ccco1 do in these assays?
BmaI1 enzyme: 10; BmaI1 enzyme counterscreen: 2

What do the screens show for `CCNC(=O)c1cccc(NC(=O)Cc2n[nH]c(=O)c3ccccc23)c1`?
BmaI1 enzyme: 16; BmaI1 enzyme counterscreen: 14

How did O=C(Cc1ccc2c(c1)OCCO2)Nc1cccc(C(F)(F)F)c1 do in these assays?
BmaI1 enzyme: 30; BmaI1 enzyme counterscreen: 6

Gathered by group, the entries above containing bromine
What do the screens show for `O=C(Oc1ccc(Br)cc1)c1cccnc1N1CCCC1`?
BmaI1 enzyme: 4; BmaI1 enzyme counterscreen: 1

How did Cn1c(SCc2cc(=O)n3cc(Br)ccc3n2)nnc1-c1ccco1 do in these assays?
BmaI1 enzyme: 10; BmaI1 enzyme counterscreen: 2
